High-throughput results from PubChem.
VACV mCherry inh = vaccinia inhibition (mCherry reporter); Potency, µM (series often up to 36.5 µM), inactives show at the top dose activity change, negative = inhibition, actives largely listed as inhibitors; actives 0.63% (n = 310,000); Vaccinia virus mCherry reporter infection, fluorescence; about a quarter of the inactives have no number; active = well fitted inhibition curve with a large enough effect; inconclusive = small, poorly fitted or top-dose-only effect; inactive = no such curve, though single readings can be large or run the other way; tested in A549 cells; further: nearly all actives have a fitted effect of over 35% in size; inactives centre near -10
VACV Venus inh = vaccinia inhibition (Venus reporter); Vaccinia virus Venus reporter expression, fluorescence; Potency, µM (titrated, usually from 36.5 µM), inactives show at the top dose activity change, negative = inhibition, most hits filed as inhibitors; actives 0.46% (n = 330,000); AID 720580; active means well fitted inhibition curve with a large enough effect; inconclusive means small, poorly fitted or top-dose-only effect; inactive means no such curve, though single readings can be large or run the other way; tested in A549 cells; further: nearly all actives have a fitted effect of over 30% in size; inactives centre near -10
The depositor's hits bear a star; i = inactive; ? = inconclusive; . = not tested or not shown; & = joins results of further samples; [ ] = dose if it differs, or a comment. On the % scale 0 is the no-effect control and ±100 the full control effect; potency means the concentration at half of the fitted maximal effect.

Each structure is followed by: VACV mCherry inh, VACV Venus inh
Cc1noc(Cn2c(=O)c3ccccc3n(CC(=O)Nc3ccccc3C(F)(F)F)c2=O)n1
→ -9%, -16%
Cc1ccccc1-n1c(C)nc2sccc2c1=O
→ -19%, -7%
CCc1ccc2c(c1)c(=O)c(C(=O)c1ccc(C)cc1)cn2CC(=O)Nc1ccccc1C
→ -4%, -8%
CC(=NNC(=S)N1CCCCC1)c1ccccn1
→ 4.5µM*, 10µM*
O=C(COC(=O)c1ccccc1[N+](=O)[O-])c1ccc(C2CCCCC2)cc1
→ -25%, -23%
CCN(Cc1ccccc1)S(=O)(=O)c1ccccc1Br
→ -22%, -4%
COc1ccc(CCN(C)C(=O)CSc2nnc(-c3ccco3)o2)cc1OC
→ -28%, -7%
COc1ccc(N2C(=O)NC(=O)/C(=C\c3ccc([N+](=O)[O-])s3)C2=O)cc1
→ 355%[activator], i
CCC(C)CN1CCC(CO)(Cc2ccccc2Cl)CC1 (centres undefined)
→ -1%, -16%
CN(C)C(=O)c1ccc(-n2cccn2)nc1
→ -10%, 2%
O=C(NCCC1CCCCN1S(=O)(=O)c1ccc(Cl)cc1)C(=O)NCc1ccncc1 (centres undefined)
→ i, -10%
CCc1ccc(C2CC(c3ccccc3)n3ncnc3N2)cc1 (centres undefined)
→ -5%, -4%
CCOc1cc(C(=O)Nc2ccc(N3CCOCC3)cc2)cc(Br)c1OC
→ -18%, -20%
CCOc1ccc2oc(C(=O)OCC(=O)NC(=O)NC)c(C)c2c1
→ -13%, 14%
Cc1ccc(Cl)cc1N(C)C(=O)c1sc2nc3n(c(=O)c2c1C)CCCC3
→ -15%, -19%
CCNc1nc2c(c(=O)[nH]c(=O)n2C)n1CC(O)COc1ccc(Cl)cc1Cl (centres undefined)
→ -22%, -19%
CCOC(=O)N1CCN(C(=O)c2c(-c3ccccc3Cl)noc2C)CC1
→ -8%, -17%
O=C(Cc1cc(=O)[nH][nH]1)N/N=C/C=C/c1ccccc1
→ ., 9%
Cc1cccc(N(CC(=O)NC2CCCC2)C(=O)CCC(=O)Nc2nc(C)cs2)c1
→ 6%, -2%
CN(C)C(=O)CN1CCN(Cc2nc(CC3CC3)no2)CC1
→ i, 0%
O=c1cc2ncc(-n3cc([N+](=O)[O-])cn3)cn2[nH]1
→ 0%, -8%
c1ccc(N2Cc3ccccc3-n3nncc3C2)nc1
→ i, -8%
O=C(O)CC12CC3CC(C1)CC(n1ncc(NCc4ccco4)c(Cl)c1=O)(C3)C2
→ i, 1%
CC(C)c1ccc(OCC(=O)Nc2cc(-c3ccccc3)no2)cc1
→ -12%, 2%
CC(=O)c1cc2c(cc1NC(=O)CSc1ccc(S(=O)(=O)N(C)C)cn1)OCO2
→ -8%, 0%
CCOc1ccc(C2=CC(=O)C[C@H](c3ccc(OC)cc3)C2)cc1
→ i, -13%
O=C(NN=Cc1c(O)ccc2ccccc12)C1CC1
→ ?, ?
COc1cccc(CNC(=O)CSc2c3c(nc4cc(Cl)ccc24)CCCC3)c1
→ -6%, -12%
CCOC(=O)[C@@H]1[C@H]2COc3cc(OC)ccc3[C@@H]2N2C(=O)N(c3ccccc3)C(=O)[C@]12C
→ i, -11%
O=C(N/C=N/OCc1cccc(C(F)(F)F)c1)N1OC[C@@H]2COc3ccc4ccccc4c3[C@@H]21
→ -11%, -20%
COc1ccc(C#Cc2c(-c3ccccc3)n(C)c3ccccc23)cc1
→ -16%, -22%
CCCOc1ccc(C(CC(=O)O)NC(=O)CC(c2ccccc2)c2ccccc2)cc1 (centres undefined)
→ -14%, 1%
Cc1cccc(-c2noc(-c3cccnc3NCc3ccccc3Cl)n2)c1
→ -2%, -2%
COc1cc(/C=C/c2ccc3cccc([N+](=O)[O-])c3n2)ccc1OCC#N
→ ?, -19%
CCCCOCCCNC(=O)C[C@@H]1C[C@@]2(C(=O)OCC)CCCC=C2N(Cc2ccc(Cl)cc2Cl)C1=O
→ i, -9%
CCOn1c(=O)c(-c2cccs2)[n+]([O-])c2ccccc21
→ -6%, -14%
CSc1ccc(CNC(=O)c2cc3cc(S(=O)(=O)N4CCCCC4)ccc3n2C)cc1
→ -25%, ?
Cc1nn(-c2ccccc2)c(N2CCCC2)c1/C=N/NC(=O)c1cccc(S(=O)(=O)Nc2ccc(Cl)cc2)c1
→ -13%, ?
Cc1ccc(C(c2nnnn2C2CCCCC2)N2CCc3ccccc32)cc1 (centres undefined)
→ -18%, -15%
CCCCc1ccc(N/C(N)=N/c2nc(C)cc(C)n2)cc1
→ ?, ?

Structures shown so far that contain a CF3 group:
Each structure is followed by: VACV mCherry inh, VACV Venus inh
Cc1noc(Cn2c(=O)c3ccccc3n(CC(=O)Nc3ccccc3C(F)(F)F)c2=O)n1
→ -9%, -16%
O=C(N/C=N/OCc1cccc(C(F)(F)F)c1)N1OC[C@@H]2COc3ccc4ccccc4c3[C@@H]21
→ -11%, -20%

The results go on:
Each structure is followed by: VACV mCherry inh, VACV Venus inh
CC(C)(C)c1ccc(OCCC(=O)NNC(=O)c2ccccc2)cc1
→ i, -9%
COc1ccc(OC)c(-c2csc(NC(=O)C3=NN(c4ccccc4)C(=O)CC3)n2)c1
→ -15%, -3%
O=C(CCS(=O)(=O)c1ccc(Br)cc1)N1CCN(Cc2ccccc2)CC1
→ ., ?
O=C(Nc1ccncc1)c1cccc(S(=O)(=O)N2CCCC2)c1
→ -25%, -14%
CCN(CC)CC(O)CN(c1ccccc1)S(=O)(=O)c1ccc2ccccc2c1 (centres undefined)
→ ?, -28%
CCCC(=O)N1CCC1(C)C(=O)Nc1ccc(C)c(C)c1 (centres undefined)
→ 30%, 11%
Cc1cc(Nc2ccccc2)c2c([N+](=O)[O-])cc(C)c(C)c2n1
→ ., -24%
O=C(Nc1ccccc1)C1=C[C@@H](C2CC2)C[C@@H](OCCCCO)O1
→ -13%, -6%
CCN(CC)C(=O)c1sc(NC(=O)c2cc(-c3ccc(C)s3)nc3ccccc23)c(C(=O)OC)c1C
→ -10%[1.46 µM], 0%
CCOC(=O)C1(CCOc2ccccc2)CCN(Cc2ccc3nonc3c2)CC1
→ -16%, -12%
CCn1c(CN2CCOCC2)nc2cc(NC(=O)c3cccc([N+](=O)[O-])c3)ccc21
→ -20%, -8%
Cc1ccc(S(=O)(=O)Nc2ccc3nc(C)oc3c2)cc1
→ -7%, -17%
CCOC(=O)c1ccccc1NC(=O)NC(C)c1c(-n2cccc2)sc(C)c1C (centres undefined)
→ -9%, -6%
COc1cc(/C=C2/C(=O)c3cccc([N+](=O)[O-])c3C2=O)c(Br)cc1O
→ -4%, -16%
O=C1CCc2cc(S(=O)(=O)N3CCCCC3)cc3c2N1CCC3
→ -12%, -13%
COc1ccc(CNC(=O)CCNC(=O)N2CC(=O)Nc3ccccc32)cc1
→ 0%, -15%
CC(C)(C)N1CC(C(=O)c2ccccc2)C1c1ccccc1 (centres undefined)
→ -16%, -10%
CC1(C)OC(=O)C(=CNc2cccc(O)c2)C(=O)O1
→ -18%, -15%
O=C1C=C(OCCF)CC(c2cccc(Cl)c2)O1 (centres undefined)
→ -2%, -3%
CCOc1ccc(NC(=O)CN(C)S(=O)(=O)c2ccc3[nH]c4c(c3c2)CCCC4)cc1
→ -19%, -8%

Looked up by compound from above, two records:
Each structure is followed by: VACV mCherry inh, VACV Venus inh
COc1ccc(CNC(=O)CCNC(=O)N2CC(=O)Nc3ccccc32)cc1
→ 0%, -15%
CC1(C)OC(=O)C(=CNc2cccc(O)c2)C(=O)O1
→ -18%, -15%

Later entries.
Each structure is followed by: VACV mCherry inh, VACV Venus inh
O=C(c1cc(-c2ccncc2)nc2ccccc12)N1CCC2(CC1)OCCO2
→ -10%, -5%
CN(CCCNC(=O)c1cc2c(=O)[nH]c3ccccc3c2n1C)Cc1ccccc1
→ -7%, -15%
COc1ccccc1NC(=O)c1nn(-c2ccc(Cl)cc2)ccc1=O
→ ., -22%
Cc1cccc2c1cnn2C(=O)CCC(=O)N1CC(C)CC(C)C1 (centres undefined)
→ -13%, 4%
Cc1ccc2c(c1)CCC2=O
→ i, -14%
CCOC(=O)C1(CC)CC(CSc2nc3ccccc3[nH]2)OC1=O (centres undefined)
→ ., ?
O=C(Nc1ccc([N+](=O)[O-])c(NC(=O)C2CCCO2)c1)C1CCCO1 (centres undefined)
→ -11%, -13%
O=C(Nc1ccc(F)cc1)N1CCCN(c2ccc(C(F)(F)F)cn2)CC1
→ i, -18%
CCCn1c2ccccc2c2cnn(CC(=O)NCCc3ccc(OCC)cc3)c(=O)c21
→ -18%, -20%
Cc1cc(Nc2cc(F)ccc2C)n2ncnc2n1
→ -17%, -8%
O=c1c2ccccc2nc(-c2ccc(Cl)c(Cl)c2)n1O
→ ., -14%
O=C(/C=C/c1ccc2c(c1)OCO2)Nc1nc(-c2ccccc2)cs1
→ ?, ?
CC1=NNC(=O)C1Oc1ccccc1 (centres undefined)
→ -11%, -2%
CCn1c(Cc2c(C)[nH]c3ccccc23)n[nH]c1=S
→ -7%, -7%
COC(=O)Cn1c(CN2CCN(c3ccc(OC)cc3)CC2)nc2c1c(=O)[nH]c(=O)n2C
→ -1%, -6%
CCOC(=O)c1ccc(NC(=O)C2=C(C)Nc3nc(SCc4ccc(Cl)cc4)nn3C2c2ccc(OC)cc2)cc1 (centres undefined)
→ -4%, -8%
COc1ccccc1N1C(=O)N(CC(=O)C(C)(C)C)c2ccccc2S1(=O)=O
→ 2%, 0%
CC1([N+](=O)[O-])COP(=O)(Nc2ccccc2F)OC1 (centres undefined)
→ -16%, -13%
CC(=NC1CCCCC1)c1ccc(O)cc1O
→ -12%, -10%
CCC(C)c1ccc(OCC(=O)NNC(=O)C2CCCCC2)cc1 (centres undefined)
→ 0%, -9%
COCCCn1c(=O)c2sccc2n2c(CCCC(=O)Nc3cccc(C(F)(F)F)c3)nnc12
→ 0%, 0%
N#CCCN(Cc1cccnc1)C(=S)NC(=O)c1ccco1
→ -6%, -13%
COc1ccc(C2C(C(N)=O)=C(C)Nc3nc(CCCO)nn32)cc1 (centres undefined)
→ -2%&8%, -1%&5%
COCC(C)n1c(SCC(=O)NC(=O)Nc2ccc3c(c2)OCCO3)nc2ccccc2c1=O (centres undefined)
→ i, -10%
CCOc1ccccc1CN1CCCC(C(=O)c2cc(F)ccc2F)C1 (centres undefined)
→ -20%, -9%
CC(C)C[C@@H](CNCC(=O)[C@H](Cc1c[nH]c2ccccc12)NC(=O)c1[nH]cnc1C(=O)N[C@@H](C)CN)NC(=O)c1nc[nH]c1C(=O)N[C@@H](C)C(=O)O
→ i, 3%
Cc1cc(C)cc(NC(=O)c2cc(Cl)sc2Cl)c1
→ -8%, -9%
N=c1ccn(Cc2c(Cl)cccc2Cl)cc1
→ -19%, 7%
CCOC(=O)c1c(NC(=O)CNCCOC)sc2c1CCCC2
→ -13%, -17%
CC(CN1c2ccccc2Sc2ccccc21)N(C)C (centres undefined)
→ -18%, -15%&-4%&-14%
CCC(CC)C(=O)N(C)c1c(C)nc2c(OCc3ccc(C(F)(F)F)cc3)cccn12
→ 5%, -15%
CN1CCN(c2c(F)cc([N+](=O)[O-])c(N)c2Br)CC1
→ -9%, -7%

Among those listed so far, these contain a Cl atom.
Each structure is followed by: VACV mCherry inh, VACV Venus inh
CCC(C)CN1CCC(CO)(Cc2ccccc2Cl)CC1 (centres undefined)
→ -1%, -16%
O=C(NCCC1CCCCN1S(=O)(=O)c1ccc(Cl)cc1)C(=O)NCc1ccncc1 (centres undefined)
→ i, -10%
Cc1ccc(Cl)cc1N(C)C(=O)c1sc2nc3n(c(=O)c2c1C)CCCC3
→ -15%, -19%
CCNc1nc2c(c(=O)[nH]c(=O)n2C)n1CC(O)COc1ccc(Cl)cc1Cl (centres undefined)
→ -22%, -19%
CCOC(=O)N1CCN(C(=O)c2c(-c3ccccc3Cl)noc2C)CC1
→ -8%, -17%
O=C(O)CC12CC3CC(C1)CC(n1ncc(NCc4ccco4)c(Cl)c1=O)(C3)C2
→ i, 1%
COc1cccc(CNC(=O)CSc2c3c(nc4cc(Cl)ccc24)CCCC3)c1
→ -6%, -12%
Cc1cccc(-c2noc(-c3cccnc3NCc3ccccc3Cl)n2)c1
→ -2%, -2%
CCCCOCCCNC(=O)C[C@@H]1C[C@@]2(C(=O)OCC)CCCC=C2N(Cc2ccc(Cl)cc2Cl)C1=O
→ i, -9%
Cc1nn(-c2ccccc2)c(N2CCCC2)c1/C=N/NC(=O)c1cccc(S(=O)(=O)Nc2ccc(Cl)cc2)c1
→ -13%, ?
O=C1C=C(OCCF)CC(c2cccc(Cl)c2)O1 (centres undefined)
→ -2%, -3%
COc1ccccc1NC(=O)c1nn(-c2ccc(Cl)cc2)ccc1=O
→ ., -22%
O=c1c2ccccc2nc(-c2ccc(Cl)c(Cl)c2)n1O
→ ., -14%
CCOC(=O)c1ccc(NC(=O)C2=C(C)Nc3nc(SCc4ccc(Cl)cc4)nn3C2c2ccc(OC)cc2)cc1 (centres undefined)
→ -4%, -8%
Cc1cc(C)cc(NC(=O)c2cc(Cl)sc2Cl)c1
→ -8%, -9%
N=c1ccn(Cc2c(Cl)cccc2Cl)cc1
→ -19%, 7%
